# From PubChem BioAssay
# GIV Gai3 FP = GIV-Galpha-i interaction inhibition; Galpha-i3/FITC-GIV peptide fluorescence polarization, 90 min; stronger effect = lower value; scaled: aluminum fluoride 0%, vehicle 100%; P08753; hit rate 0.42% among 210,000; percent of control (FP), % (concentration not given with the values);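 active means replicate mean at 85% of control or lower, very high polarization wells dropped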;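 further: wells of about 15 µL received 100 nL stock; the first replicate is given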
# Target sequence (P08753 whole entry, looked up): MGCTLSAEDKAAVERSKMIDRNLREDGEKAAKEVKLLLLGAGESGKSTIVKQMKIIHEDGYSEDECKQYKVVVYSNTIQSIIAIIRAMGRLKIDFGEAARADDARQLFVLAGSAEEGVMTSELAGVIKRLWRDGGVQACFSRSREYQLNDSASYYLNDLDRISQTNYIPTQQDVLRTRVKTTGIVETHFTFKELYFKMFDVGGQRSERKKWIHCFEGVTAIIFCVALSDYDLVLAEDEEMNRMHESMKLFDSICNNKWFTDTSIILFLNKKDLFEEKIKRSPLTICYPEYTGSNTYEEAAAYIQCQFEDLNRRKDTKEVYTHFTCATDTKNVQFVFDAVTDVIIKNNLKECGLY
# Sa growth 42C = inhibitors of Staphylococcus aureus growth at 42 °C; hit rate 0.53% among 170,000; relative growth, % (concentration not given with the values); AID 720641; S. aureus RN4220 growth, OD600, 20 h; stronger effect = lower value;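 active means growth at 42 °C up to 50% and 20 or more points under that at 30 °C, or under 10% at both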;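 further: 300 nL library stock went into each well; scaled to the means of positive and negative controls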
# HCMV NEC inh = cytomegalovirus nuclear egress complex inhibition | inhibition, % (test concentration not listed) | HTRF UL50-UL53 interaction, normalized percent inhibition | hit rate 0.15% among 190,000 | AID 1918969;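 active means both replicates at 50% or more, plus weaker picks with an unusually low signal ratio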;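 further: stock transfer was 100 nL into about 20 µL; 0% = negative control wells and 100% = wells with untagged competitor protein; inactives centre near -12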
# Sa growth 42C second temp = also measured in Sa growth 42C; calls as there; relative growth, %; measured here: growth at 30 °C;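 optical density after 20 h as mean of two plates; 100% = untreated growth and lower means inhibition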
# * = called active by the depositor; · = not tested or not shown.
Compound | GIV Gai3 FP | Sa growth 42C | Sa growth 42C second temp | HCMV NEC inh
COc1ccc(NS(=O)(=O)c2ccc3c(c2)CCCC(=O)N3)c(OC)c1 | 105 | · | · | 0
CS(=O)(=O)N1CCCc2cc(C(=O)NCC3CCCO3)ccc21 (configuration not stated) | 104 | · | · | 10
COc1ccc(OC)c(CNC(=O)CN2N=C(c3ccc(Cl)cc3)CCC2=O)c1 | 100 | 109 | 89 | ·
CCCCON1C(=O)c2cccc3cccc(c23)C1=O | 106 | 79 | 95 | -148
C/C(=N/NC(=O)CCc1ccccc1)C1CC1 | 105 | 100 | 91 | -22
Cc1nc2c(C(=O)NC3CC3)c[nH]n2c(=O)c1Cc1ccccc1F | 111 | 61 | 79 | ·
N#Cc1ccccc1COC(=O)COc1ccccc1C#N | · | 97 | 96 | -6
O=C1N(Cc2ccc(F)cc2Cl)c2ccccc2C12OCCCO2 | 108 | 106 | 105 | -3
CCOC(=O)C1CCN(c2ncnc3c2nc2n3CCCCC2)CC1 | 97 | 120 | 89 | ·
CCn1cc2nc(SCC(=O)NCc3ccccc3)n(Cc3ccc(OC)cc3)c(=O)c2n1 | 105 | 102 | 73 | -34
CCOc1cccc2cc(C(C)N)oc12 (configuration not stated) | · | 96 | 99 | 7
O=C(O)c1cc(NS(=O)(=O)c2ccc3c(c2)CCCC3)cnc1N1CCC(N2CCCCC2)CC1 | 80* | · | · | -24
O=C(NNc1nc2cc3c(cc2s1)OCCO3)c1ccc(F)cc1 | 111 | 97 | 86 | 20
Cn1ccnc1SCC(=O)NC(=O)NCc1ccccc1 | · | 93 | 94 | 10
CS(=O)Cc1cc(Cl)nc(-c2ccncc2)n1 (configuration not stated) | 107 | · | · | 6
COc1ccc(C2C(C(=O)Nc3ccccc3F)c3ccccc3C(=O)N2C)cc1 (configuration not stated) | 104 | 110 | 97 | 0
COc1ccc(C)cc1NC(=O)c1ccc(NS(=O)(=O)c2c(C)noc2C)cc1 | 102 | 104 | 74 | -10
Cc1cc(C)n(CCC(=O)N2CCN(c3ccc(=O)n(-c4ccc(C)c(C)c4)n3)CC2)n1 | 108 | · | · | -44
COc1ccc(NCC(=O)N/N=C2\CCCC(C)C2)cc1 (configuration not stated) | · | 112 | 84 | -6
Ic1ccc(OCCCCn2ccnc2)cc1 | 97 | 1.3* | 2.3* | -2
Cc1ccc(NC(=O)Cn2cc(C(=O)c3ccco3)c3ccccc32)cc1C | 104 | 77 | 90 | -3
COc1ccc(C)cc1NC(=O)c1cc(S(=O)(=O)N2CCC(C)CC2)cn1C | 101 | 91 | 94 | ·
O=C(CCN1C(=O)C2C3C=CC(C3)C2C1=O)N1CCC2(CC1)OCCO2 (configuration not stated) | 110 | 95 | 97 | -16
S=C(NCc1ccco1)NC1CCCCC1 | 97 | 95 | 87 | -14
COc1ccccc1CNC(=O)c1ccc(NC(=O)c2nnc(COc3ccc(Cl)cc3)s2)cc1 | 105 | · | · | -16
Cc1noc(C)c1C(=O)NCc1ccc(S(N)(=O)=O)cc1 | 106 | 80 | 99 | 1
Cc1cc(NC(=O)CCCC(=O)c2ccccc2)n[nH]1 | 101 | 124 | 93 | ·
COc1ccc2cc(-c3nnc(Nc4ccccc4)s3)c(=O)oc2c1 | 107 | 87 | 91 | ·
O=C(CSc1ccc(Cl)cc1)N1CCN(c2cc(=O)n3nc(-c4ccccc4)sc3n2)CC1 | 107 | · | · | -35
O=C(Nc1ccc(F)cc1)Nc1ccc2[nH]c(=O)[nH]c2c1 | · | 98 | 94 | -16
CCn1nnc2c(Nc3ccc(Cl)c(Cl)c3)ncnc21 | 104 | 100 | 82 | -32
CCOc1ccc(-c2nc(-c3ccc4c(c3)[nH]c(=O)c(=O)n4C(C)C)no2)cc1 | 101 | · | · | -21
Cc1oc2nc[nH]c(=O)c2c1C(=O)NCCC(c1ccccc1)c1ccccc1 | · | 92 | 90 | -29
O=c1[nH]cccc1-c1nc(-c2ccc3c(c2)OCO3)no1 | 97 | · | · | -34
O=C(Nc1ccc(Cl)c(C(F)(F)F)c1)c1ccc2c(c1)CCN2S(=O)(=O)c1ccccc1 | 100 | 109 | 84 | -14
Cc1ccc(O)c(NC(=O)CCS(=O)(=O)c2nc(-c3cccs3)cc(C(F)(F)F)n2)c1 | 104 | 80 | 51 | -30
CC(C)c1ccc(NC(=O)c2c(O)c3ccccc3[nH]c2=O)cc1 | 104 | · | · | -14
O=C1OC(c2ccccc2)=N/C1=C\c1cn(-c2ccccc2)nc1-c1cc2ccccc2o1 | · | 71 | 83 | -15
Cc1nnc(NC(=O)CSc2ccc3nnc(-c4ccc(Cl)cc4)n3n2)s1 | 99 | · | · | -20
COc1ccc2c(c1)CCc1c(C(=O)Nc3c(C)nn(Cc4ccccc4)c3C)noc1-2 | 100 | 96 | 99 | 4
CC1=C(CCN2CCN(CCO)CC2)C(C)(C)CCC1 | 104 | 100 | 113 | 2
CCOC(=O)c1cc(CC)sc1/N=C/c1c(O)[nH]c(=O)[nH]c1=O | · | 110 | 99 | 3
O=C1NCC2=C1C(c1ccccc1)Nc1ccccc1N2 (configuration not stated) | 96 | 98 | 76 | -19
C=CCc1cccc(/C=N/NC(=O)c2ccccc2)c1O | 106 | 90 | 74 | -1
N#Cc1ccccc1S(=O)(=O)N1CCCC1c1ccc2c(c1)OCCCO2 (configuration not stated) | · | 86 | 86 | -16
Cc1ccccc1NC(=S)N=Nc1c(O)n(CN2CCN(c3ccccc3)CC2)c2ccccc12 | 99 | 75 | 41 | -51
Cc1cc(C)c2c(N)c(C(=O)NC3CCCC3)sc2n1 | · | 73 | 92 | -45
O=C(Cc1ccc(F)cc1)N1CCC(c2nc3c(nnn3Cc3ccc(Cl)cc3)c(=O)[nH]2)CC1 | 102 | 6.4* | 4.9* | 4
Cc1c(Cl)cccc1NC(=O)c1cc(-c2ccco2)nc2ccccc12 | · | 89 | 92 | 10
CCSc1nc2sc3c(c2c(=O)n1-c1ccccc1)CCN(C(C)=O)C3 | 100 | 14 | 17 | ·
O=C(C(c1ccccc1)N1Cc2ccccc2C1=O)N1CCN(c2ccccc2F)CC1 (configuration not stated) | 108 | 100 | 84 | -31
O=C(NC1CCCC1)c1ccc(CSc2nc3cccnc3n2Cc2ccccc2F)cc1 | 97 | 110 | 95 | ·
Cc1ccc2nc(-c3ccc(-n4ccc(=O)cc4)cc3)sc2c1 | · | 92 | 65 | -102
CC(C)C1Oc2ccccc2N(CC(=O)N(CCCN2CCOCC2)Cc2ccc(F)cc2)C1=O (configuration not stated) | 106 | 81 | 97 | 11
C=CCn1c(SCC(=O)NCc2ccc(F)cc2)nc2ccccc21 | · | 102 | 102 | -4
CCc1nn2c(=O)cc(COC(=O)c3cccc(NC(=O)COc4ccccc4F)c3)nc2s1 | 107 | 90 | 94 | ·
COC(=O)c1c(NC(=O)COc2ccc(C(C)C)cc2)sc2c1CCCC2 | 103 | 91 | 90 | -18
FC(F)(F)c1ccnc(N2CCOCC2)n1 | 98 | 107 | 81 | -12
CCOc1ccc(C2C=C(c3cccc(OC)c3)Nc3nnnn32)cc1 (configuration not stated) | 103 | 104 | 88 | -14
CCC(=O)Nc1cc(C)c(O)c(-c2nc3cc(C)ccc3o2)c1 | 102 | 88 | 91 | ·

# Record cards, from the list above. Order of values: GIV Gai3 FP, Sa growth 42C, Sa growth 42C second temp, HCMV NEC inh
# CCc1nn2c(=O)cc(COC(=O)c3cccc(NC(=O)COc4ccccc4F)c3)nc2s1 across the screens: 107, 90, 94, ·
# COc1ccc2c(c1)CCc1c(C(=O)Nc3c(C)nn(Cc4ccccc4)c3C)noc1-2 across the screens: 100, 96, 99, 4
# CCOc1ccc(-c2nc(-c3ccc4c(c3)[nH]c(=O)c(=O)n4C(C)C)no2)cc1 across the screens: 101, ·, ·, -21
# Cc1ccccc1NC(=S)N=Nc1c(O)n(CN2CCN(c3ccccc3)CC2)c2ccccc12 across the screens: 99, 75, 41, -51

# (further entries)
# Fields: GIV Gai3 FP	Sa growth 42C	Sa growth 42C second temp	HCMV NEC inh
- Cc1ccc(N=C2NC(=O)C(Cc3ccc(Cl)cc3)S2)cc1 (configuration not stated)
 : 102	·	·	-14
- CCOC(=O)c1c(C)[nH]c(CCC(=O)NC(C)c2ccccc2)c1C (configuration not stated)
 : 104	95	88	·
- CC1CCCN(c2nc(-c3ccccc3O)nc3ccccc23)C1 (configuration not stated)
 : 106	97	84	-20
- COc1ccc(NC(=O)c2ccco2)cc1NC(=O)c1cc2ccccc2o1
 : 107	86	58	2
- O=c1c2ccccc2n2c(-c3cccc(F)c3)nnc2n1Cc1ccccc1
 : 104	111	93	-22
- CCCN(CCC)S(=O)(=O)Cc1ccccc1Cl
 : 105	95	98	4
- Cc1cccc2nc(CN3CCN(Cc4ccc5c(c4)OCO5)CC3)cc(=O)n12
 : ·	101	95	-48
- N#CC(=NCc1ccc(Cl)cc1)C1=C(O)c2ccccc2C1=O
 : 99	109	95	3
- O=C(Nc1cc(N2CCCCC2)ncn1)NC1(C(F)(F)F)Oc2ccccc2O1
 : 100	95	91	-14
- CSc1sc(C(=O)O)c(-c2ccccc2Cl)c1C#N
 : 107	112	86	-8
- Cc1ccc(C=C2C(=O)OC(C)(C)OC2=O)s1
 : 96	83	94	3
- Cc1ccc(OC(C)C(=O)NCCCN2CCOCC2)cc1C (configuration not stated)
 : 108	92	110	-9
- Cn1c(=O)n(C)c2cc(Sc3ccccc3Cl)c(NS(=O)(=O)c3cnc[nH]3)cc21
 : 102	·	·	-10
- Cc1ccc(CNC(=O)Cn2nnc(C(=O)Nc3cc(C)ccc3C)c2N)cc1
 : 104	·	·	-9
- Cc1ccc(S(=O)(=O)N/N=C/c2cc(C)n(-c3ccc(N(C)C)cc3)c2C)cc1
 : 105	99	100	6
- CC(C)(C)C(=O)Nc1c2c(nn1-c1cccc(Cl)c1)CSC2
 : 99	87	44	-16
- COC(=O)c1sccc1NC(=O)Cc1noc2ccc(C)cc12
 : 103	107	90	·
- CCN(Cc1ccccc1)S(=O)(=O)c1cn(C)c(=O)n(C)c1=O
 : 104	88	93	-37
- O/N=C/c1ccc2cccc(OCc3ccccc3)c2n1
 : 99	112	76	-28
- Cc1cc2oc(C(=O)O)cc(=O)c2cc1C
 : 106	106	77	-24
- C/C=C(\C)CN1CCN(c2ccccc2)CC1
 : 108	102	89	10
- Cc1ccc(NC(=O)C(C)Sc2nc(-c3ccccc3)c(C#N)c(=O)[nH]2)c(C)c1 (configuration not stated)
 : 103	110	93	-20
- Cc1cccc(C)c1NC(=O)C1(N(Cc2ccccc2)C(=O)c2ccc(-n3cnnn3)cc2)CCCC1
 : ·	99	80	-10
- COCCNC(=O)CN1CCc2ccccc2C1
 : ·	96	90	3
- O=C(OCC(=O)N1CCc2ccccc2C1)c1ccccc1
 : ·	96	90	-24
- Cc1noc(/C=C/c2ccccc2F)c1S(=O)(=O)N1CCC(C(=O)N2CCOc3ccccc32)CC1
 : 105	112	91	·
- CN(CC(O)COc1ccc2oc3ccccc3c2c1)C1CCCCC1 (configuration not stated)
 : ·	89	82	-38
- O=C1NC(=O)N2CCCC12 (configuration not stated)
 : ·	94	89	-5
- CCC(=O)Nc1cc(-c2cccc(C)c2)nn1-c1ccccc1
 : 104	92	90	·
- NNC(=O)/C(=C/c1ccccc1)NC(=O)c1ccccc1
 : 102	95	104	-10
- CCOc1ccc(CC2S/C(=N\c3ccccn3)NC2=O)cc1 (configuration not stated)
 : 104	·	·	-10
- Cc1ccc(C)c(NC(=O)CCc2nc(-c3ccc(C(C)(C)C)cc3)no2)c1
 : 104	106	95	2
- OCCNc1nc2ccccc2n1CCOc1ccccc1
 : 102	89	77	6
- O=C(O)c1ccc(Nc2nc3ccccc3n3cnnc23)cc1
 : 102	96	85	-42
- COc1ccccc1CNC(=O)Nc1ccc2c(c1)N(C)C(=O)c1ccccc1S2
 : 98	97	102	7
- CC1CCN(S(=O)(=O)c2ccc3c(c2)c(=O)c(C(=O)NC(C)c2ccccc2)cn3C)CC1 (configuration not stated)
 : 101	100	95	-25
- COC(=O)c1c(N)n(-c2ccc(OC)c(OC)c2)c2nc3ccccc3nc12
 : 104	111	85	-35
- CN(C(=O)Cc1noc2ccccc12)c1cccc(C(F)(F)F)c1
 : 101	116	89	1
- CCOC(=O)c1ccc(NC(=O)CSc2nccn2-c2ccc(OCC)cc2)cc1
 : 102	96	93	-13
- N#Cc1ccc(OCC(=O)N2CCSc3ccccc32)cc1
 : ·	90	93	2
- O=C1c2[nH]nc(-c3ccccc3O)c2C(c2cccc(Br)c2)N1Cc1ccncc1 (configuration not stated)
 : 97	105	86	-28
- NCCCc1ccccn1
 : 104	114	93	-27
- Cc1cccc(C)c1-n1ncc(C(=O)N2CCN(c3ncccn3)CC2)c1C1CCN(C(=O)OC(C)(C)C)CC1
 : 106	103	89	·
- C=CCn1sc(N)c(C(=O)OCC)c1=S
 : ·	89	98	-60
- CCOC(=O)C(N)Cc1ccccc1 (configuration not stated)
 : ·	86	126	-2
- COc1ccc(C2CC(=O)N(CC(=O)Nc3cccc(C)c3C)c3ccccc3S2)cc1OC (configuration not stated)
 : 104	108	86	-34
- Cc1ccc(S(=O)(=O)/N=C2\C=CC(=O)c3ccccc32)c(C)c1
 : 102	67	34	·
- O=C(N[C@@H](Cc1ccccc1)C(=O)CCl)OCc1ccccc1
 : 105	·	·	5
- Cc1cc(Cl)ccc1OCC(=O)N/N=C/c1ccc(OC2OC(CO)C(O)C(O)C2O)cc1 (configuration not stated)
 : 109	104	103	1

# Looked up by structure from the list above:
# Fields: GIV Gai3 FP	Sa growth 42C	Sa growth 42C second temp	HCMV NEC inh
- Cc1ccc(C)c(NC(=O)CCc2nc(-c3ccc(C(C)(C)C)cc3)no2)c1
 : 104	106	95	2
- NCCCc1ccccn1
 : 104	114	93	-27
